Bioassay records from PubChem.
WNV protease inh: WNV NS2B-NS3 proteinase inhibition; P06935; WNV NS2B-NS3 protease, fluorogenic substrate Ex360/Em465; active compounds read low; z-score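 (tested at a level between 10 and 100 µM)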; actives 0.18% (n = 65,000); AID 577;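 active = z-score at -3 or under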;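 also: score is relative to mean and spread of the compound wells of a plate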
Target sequence (P06935 1371-1501 limits assumed): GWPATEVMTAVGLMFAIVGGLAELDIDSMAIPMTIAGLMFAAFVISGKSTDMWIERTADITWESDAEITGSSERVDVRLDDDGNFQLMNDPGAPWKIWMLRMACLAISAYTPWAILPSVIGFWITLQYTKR
Target sequence (P06935 1502-1679 limits assumed): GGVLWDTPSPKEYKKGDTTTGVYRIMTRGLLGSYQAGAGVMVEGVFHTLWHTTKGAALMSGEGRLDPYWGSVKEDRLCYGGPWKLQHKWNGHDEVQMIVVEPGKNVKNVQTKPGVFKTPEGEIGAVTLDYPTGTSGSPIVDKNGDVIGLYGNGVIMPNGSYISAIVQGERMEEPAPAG
MT1-MMP reporter: MT1-MMP gene expression reporter suppression – cell-based, luciferase reporter, luminescence (AID 618) | actives 0.62% (n = 87,000) | MT1-MMP promoter luciferase reporter cells, luminescence | calls from a first round at 10 µM; hits with a dose series show EC50 in µM;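 active = over half of the reporter light lost at 10 µM or EC50 under 50 µM; inactive = the rest and hits that failed the dose series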;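 also: actives suppress MT1-MMP promoter-driven transcription so potencies describe inhibitors; HT1080 fibrosarcoma cells; overnight exposure; toxic or luciferase-blocking compounds were not removed from the actives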
Hsc70 ATP site: Hsc70 inhibitors, probe displacement, primary screen, biochemical, fluorescence polarization (AID 568); Hsc70 fluorescence polarization, probe displacement; higher % means a stronger effect; strong numbers were not always called active; one-dose displacement, % at 20 µM; IC50 in µM for titrated hits; 83,000 tested, under 10 active;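 active = displacement above 50% without optical interference and an IC50 on retest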;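 also: ATPase domain with a fluorescein-tagged ATP probe; 0% = vehicle and 100% = excess ADP; read after one hour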
The depositor's hits bear a star; i = inactive; . = no result given. An unsorted share of the library (roughly 0.8% active in at least one column).

SMILES	WNV protease inh	MT1-MMP reporter	Hsc70 ATP site
O=C(O)CC(C(=O)O)n1nc(-c2ccccc2)cc1-c1ccccc1 (stereo not given)	-0.22	i	0.3%
CCCC1C2C(=O)N(c3ccccc3OCC)C(=O)C2ON1c1ccccc1 (stereo not given)	.	i	0.5%
Cc1ccc(C)c(NC(=O)CN(C)C(=O)CCN2C(=O)c3ccccc3C2=O)c1	.	i	-2.7%
COc1ccc(NC(=O)Cn2c(C)cc(=O)c3cccc(OC)c32)cc1	-0.92	i	2.7%
O=C1CC(N2CCN(c3nc4ccccc4s3)CC2)C(=O)N1c1cccc(F)c1 (stereo not given)	.	i	4.2%
Cc1cccc(C)c1NC(=O)CS(=O)CC(=O)Nc1ccc(F)cc1F (stereo not given)	.	i	0.8%
COc1ccc(OC)c(CCNC(=O)CC2Oc3ccc(C)cc3NC2=O)c1 (stereo not given)	-0.12	i	4.3%
CCOc1ccccc1N(CC(=O)OC)S(=O)(=O)c1ccccc1	-0.39	i	4.1%
O=C(NC1CCCCC1)c1cc2nc3c(c(C(F)(F)F)n2n1)CCCC3	0.7	i	2.7%
COc1ccccc1NC(=O)c1ccc(Cl)c(S(=O)(=O)N2CCOCC2)c1	0.36	i	6.2%
O=C(C1CCC(CNc2c(N3CCCCC3)c(=O)c2=O)CC1)N1CCN(c2ccccn2)CC1 (stereo not given)	-1.4	i	0.5%
Cc1cc(=O)[nH]c(Nc2ccc(C(=O)OC(C)C)cc2)n1	-0.42	i	-12%
Cc1ccc(C)c(NS(=O)(=O)c2ccc(NC(=O)c3ccco3)cc2)c1	-0.61	i	7.1%
C=CCn1c(SCc2ccccc2)nnc1-c1cccnc1	-1.5	i	3.4%
CC(=O)Nc1ccc(NC(=O)c2ccccc2F)cc1	0.58	i	-2.1%
COc1ccc(CCNC(=O)CSCc2n[nH]c(=O)[nH]2)cc1OC	0.41	i	8.0%
CN1CCN(C(=O)c2cn(C)c3ccc(S(=O)(=O)N(C)C4CCCCC4)cc3c2=O)CC1	-0.08	i	1.8%
CCOc1nc(-c2ccccc2)ccc1-c1noc(-c2ccncc2)n1	1	i	-13%
Cc1cc(F)c(F)c(C(=O)N2CCOCC2)c1	.	i	0.3%
O=C(CN1C(=O)C2(OCCCO2)c2ccccc21)NCc1ccccc1	0.74	i	-0.7%
COc1ccc(NCc2nnc(SCC(=O)c3ccc(OC)cc3)n2C)cc1	0.28	i	-2.7%
Cc1ccc(Nc2nc(N)nc(CC#N)n2)cc1	-0.64	i	1.5%
Cc1ccc(CCNC(=O)C2CCCN(S(=O)(=O)c3c(C)nn(C)c3C)C2)cc1 (stereo not given)	-0.27	i	6.8%
O=C(CN1C(=O)C2CC=CCC2C1=O)NCC1COc2ccccc2O1 (stereo not given)	.	i	0.6%
Cc1ccc2cc(C#N)c(N3CCN(C)CC3)nc2c1	.	i	-3.5%
O=C(CC1SCCNC1=O)Nc1cccc(Cl)c1 (stereo not given)	-0.83	i	2.8%
Cc1c(O)cc2n(c1=O)-c1ccccc1C2(C)C	.	i	4.5%
NC(=O)c1cc(S(=O)(=O)NC2CCCCC2)co1	-0.75	i	4.7%
O=C(OCC#CCSc1nnc(-c2cccc3ccccc23)o1)c1cccs1	0.46	i	-7.7%
Cc1cc(C)nc(NC2=NCC(=O)N2c2cccc(Cl)c2)n1	0.07	i	1.2%
Cc1nc2ccccc2c(=O)n1NC(=O)c1ccccc1Cl	0.49	i	8.8%
COc1cc(OC)c(Cl)cc1N	-0.39	i	-2.0%
CCOC(=O)c1c(C)n(C)c2ccc(OCC(O)CN3CCC(C)CC3)cc12 (stereo not given)	-0.26	i	-3.1%
NC(=O)c1ccsc1NC(=O)COC(=O)Cc1cccc2ccccc12	.	i	-1.2%
Cc1ccc(C)c(NS(=O)(=O)c2cc(Br)cnc2N)c1	0.11	i	-6.6%
O=C(Nc1ccccc1)N1CCSCC1	-0.71	i	6.0%
O=C(CSc1nccc(=O)[nH]1)Nc1ccc(S(=O)(=O)N2CCOCC2)cc1	.	i	0.2%
O=C(CC(c1ccccc1)c1ccccc1O)NCCN1CCOCC1 (stereo not given)	0.64	i	6.2%
CC(=O)c1cccc(NC(=O)C2CCN(S(=O)(=O)c3cccs3)CC2)c1	.	i	0.7%
O=C(c1ccc(N2CCNCC2)cc1)c1cccnc1	-0.32	i	0.5%
CC1CN/C(=C\C(=O)c2ccc(Cl)cc2)C(=O)N1 (stereo not given)	.	i	-1.8%
O=C(c1ccc(Cl)c(S(=O)(=O)Nc2ccc(F)cc2)c1)N1CCN(c2ccccn2)CC1	.	i	3.5%
O=c1[nH]c(N2CCc3ccccc3C2)nc2c1CCC2	-0.51	i	-4.3%
Cc1n[nH]c(C)c1S(=O)(=O)N1CCC(C(=O)N2CCn3c2nc2ccccc23)CC1	.	i	-0.3%
N#Cc1nc(Cc2cccc3ccccc23)oc1N1CCCCC1	1.4	i	-2.8%
O=C(O)Cc1nc2nc3c(c(=O)n2[nH]1)CCCC3	0.61	i	0.0%
O=C(O)C1CSCN1S(=O)(=O)c1cccc2nsnc12 (stereo not given)	1.6	i	-4.3%
COc1ccc(N(CC(=O)NC2CCCC2)C(=O)Cn2nnc(-c3ccc(F)cc3)n2)cc1OC	0.07	i	-5.2%
COc1ccc(S(=O)(=O)Cc2ccc(C(=O)NC3CCCC3)o2)cc1	-0.92	i	0.9%
C=CCn1c(CCCNC(=O)C(C)(C)C)nc2ccccc21	-0.5	i	0.9%
O=C(c1ccccc1)N1CCN(Cc2c[nH]c3ccccc23)CC1	2.1	i	2.7%
COCCNC(=O)C1CCC(Cn2c(=S)[nH]c3ccccc3c2=O)CC1 (stereo not given)	-0.0018	i	5.9%
S=c1[nH]nc(-c2cccnc2)o1	-1.8	i	4.1%
O=C(OCC(=O)N1CCN(c2ccccc2)CC1)c1ccccn1	0.15	i	5.9%
CC(=O)c1cccc(NC(=O)N2CCCC2C(=O)Nc2c(C)cccc2C)c1 (stereo not given)	-0.24	i	-1.3%
Cc1occc1C(=O)Nc1ccc2c(c1)OCO2	0.27	i	-4.7%
Cc1cc(C)nc(Nc2ncc(O)n2-c2ccc(C)c(Cl)c2)n1	-0.5	i	1.8%
COc1ccc(CCN2C(=O)C3C4CC(C5C(C(=O)NN)=NOC45)C3C2=O)cc1OC (stereo not given)	.	i	0.7%
Cc1oc(C(=O)Nc2ccc(C(=O)O)cc2)cc1COc1ccccc1	.	i	0.5%
COC(=O)c1ccc2[nH]c(C)cc(=O)c2c1	0.48	i	-1.2%
(more compounds)
SMILES	WNV protease inh	MT1-MMP reporter	Hsc70 ATP site
COc1ccc2c(Cl)c(C(=O)NC3CCS(=O)(=O)C3)sc2c1 (stereo not given)	1.4	i	-9.2%
C[C@H](CCC(=O)O)[C@H]1CC[C@H]2[C@@H]3C(=O)C[C@@H]4CC(=O)CC[C@]4(C)[C@H]3CC(=O)[C@]12C	0.13	i	-0.9%
O=C(NCCN1CCOCC1)C1CCN(c2nc3ccccc3o2)CC1	1	i	-1.4%
COCCOC(=O)C1=C(C)NC(=O)NC1c1ccc(Cl)cc1 (stereo not given)	0.8	i	-1.1%
O=C(O)C1CCN(S(=O)(=O)N2CCOCC2)CC1	-0.06	i	-6.6%
Cn1c(=O)cc(SCC(=O)N2CCCC2)c2ccc(Cl)cc21	1.1	i	-1.9%
C=CCn1c(=O)c2ccccc2n2c(Sc3nnnn3-c3ccccc3)nnc12	0.08	i	5.6%
Cc1ccccc1NC(=O)c1ccc(F)c(S(=O)(=O)N2CCN(c3ccccn3)CC2)c1	0.67	i	4.9%
CC(=O)COc1ccc2c3c(c(=O)oc2c1)CCCC3	0.1	i	3.9%
CC(NO)C(C)(C)NO (stereo not given)	-0.45	i	-1.1%
Cn1c(-c2ccc(F)cc2)cnc1NCc1ccc(C#N)cc1	-0.96	i	2.9%
CCOc1ccc2nc(NC(=O)CN3CCC(n4nnc5cc(C(F)(F)F)ccc54)CC3)sc2c1	.	i	5.6%
Cc1cc(Nc2ccc(F)cc2C)n2nc(C)nc2n1	-0.53	i	1.0%
COc1ccccc1N1CCN(C/C=C/c2ccc(N(C)C)cc2)CC1	-1.1	i	-4.0%
COc1ccccc1NS(=O)(=O)c1ccc(OC)c(OC)c1	0.33	i	0.3%
CCOC(=O)c1c(C)[nH]c(C(=O)CN2C(=O)NC(CC)(c3ccccc3)C2=O)c1C (stereo not given)	-0.45	i	0.8%
N#CC1(c2ccccc2)CCC(=NO)CC1 (stereo not given)	0.74	i	-1.8%
COc1ccc(OC)c(N2C(=O)[C@@H]3C(c4ccccc4Cl)=NO[C@@H]3C2=O)c1	0.35	i	-1.6%
COc1cccc(C2=NOC(C(=O)N3CCOCC3)C2)c1 (stereo not given)	0.13	i	-3.4%
Cc1oc2c(c(=O)c1C)C(=O)CC(c1ccccc1)C2 (stereo not given)	0.56	i	2.0%

Reprinted from above (5 entries):
SMILES	WNV protease inh	MT1-MMP reporter	Hsc70 ATP site
CCOC(=O)c1c(C)[nH]c(C(=O)CN2C(=O)NC(CC)(c3ccccc3)C2=O)c1C (stereo not given)	-0.45	i	0.8%
N#CC1(c2ccccc2)CCC(=NO)CC1 (stereo not given)	0.74	i	-1.8%
COc1ccc(OC)c(N2C(=O)[C@@H]3C(c4ccccc4Cl)=NO[C@@H]3C2=O)c1	0.35	i	-1.6%
COc1cccc(C2=NOC(C(=O)N3CCOCC3)C2)c1 (stereo not given)	0.13	i	-3.4%
Cc1oc2c(c(=O)c1C)C(=O)CC(c1ccccc1)C2 (stereo not given)	0.56	i	2.0%

(further entries)
SMILES	WNV protease inh	MT1-MMP reporter	Hsc70 ATP site
Cc1c(NC(=O)c2cccc(S(=O)(=O)N3CCOCC3)c2)c(=O)n(-c2ccccc2)n1C	-2	i	9.5%
CC(=O)NCN1CCN(CNC(C)=O)CC1	-1.1	i	3.5%
O=C(c1cccc(S(=O)(=O)N2CCOCC2)c1)N1CCCCCC1	-0.17	i	0.1%
CCOC(=O)c1ccc2c(c1)nc(C1CCN(S(=O)(=O)c3cccs3)CC1)n2CC	2	i	-3.5%
Cn1nnnc1SCC(=O)N1CCN(c2ccc(Cl)cc2)CC1	0.2	i	-9.1%
Cc1nn(C)c(C)c1CN(C)S(=O)(=O)c1ccc(F)cc1	.	i	0.7%
Cc1ccc(C)n1-c1ccc2c(c1)COC2=O	0.69	i	-2.0%
Cc1cc(SCC(=O)N/N=C/c2ccc(O)c(O)c2)c(C)cc1Br	.	i	-0.4%
Cc1ccc(O)c(C(=O)c2cnc3c(c2)COc2ccc(C)cc2-3)c1	.	i	0.7%
COc1cccc(NC(=O)CNC(C)CCC(C)C)c1 (stereo not given)	1.1	i	-0.4%
COC(=O)c1ccccc1NC(=O)c1ccc(-c2ccccc2F)o1	0.53	i	-1.3%
Cc1cc(C)cc(OCC(=O)N(Cc2cccs2)C2CCS(=O)(=O)C2)c1 (stereo not given)	-0.61	i	-2.9%
O=C(CSc1ccc2nnc(-c3ccccn3)n2n1)NCc1ccc2c(c1)OCO2	-0.85	i	2.0%
O=C(NCc1cccnc1)C1COc2ccccc2O1 (stereo not given)	.	i	3.2%
N#C/C(=C/c1ccc(N2CCCCCC2)o1)c1ccc(F)cc1	0.05	i	-54%
Cc1nn(-c2cccc3cccnc23)c(=O)c2ccccc12	.	i	2.4%
Cc1cccc(-n2c(Cc3ccccc3)nnc2SCC(=O)N2CCOCC2)c1	-1.3	i	4.2%
CCOC(=O)c1cc2c(C(F)(F)F)cc(-c3cccnc3)nc2o1	0.94	i	1.1%
CCOC(=O)c1[nH]c(C)c(C(=O)N2CCN(C(=O)c3ccco3)CC2)c1C	1.7	i	-3.3%
Cn1c(SCC(=O)C(C)(C)C)nnc1-c1ccccn1	.	i	-0.7%
COc1ccc(C2=CC(c3cccc(OC)c3)n3nnnc3N2)cc1 (stereo not given)	-1.3	i	0.8%
Cc1cccc(NC(=O)CSc2nnc(Cn3nnc(-c4ccccc4)n3)n2-c2ccccc2)c1	0.006	i	-5.3%
CCOC(=O)CN(C(=O)CSc1nnc(-c2ccc(OC)c(OC)c2)o1)c1ccccc1	0.24	i	-0.2%
O=C(O)c1ccccc1SCC(=O)N1CCCCC1	-1.6	i	-7.6%
COc1ccc(-n2c(Cc3cccn3C)nnc2SCC(=O)N2CCCc3ccccc32)cc1	-1.5	i	-7.1%
Cc1c(Cl)cccc1N=c1c([N+](=O)[O-])nn(-c2ccccc2)n1O	.	i	-0.3%
O=C(c1cccnc1)N1CCN(C(=O)c2ccccc2F)CC1	1.2	i	-0.7%
NC(=O)C1CCN(C(=O)c2cnn(-c3ccccc3)c2NC(=O)c2ccco2)CC1	1.5	i	-1.8%
COCCn1c(SCC(=O)NCC2CCCO2)nc2c(c1=O)SC(C)C2 (stereo not given)	2.4	i	2.9%

Complete entries as entered above:
O=C(O)c1ccccc1SCC(=O)N1CCCCC1 is listed as WNV protease inh = -1.6; MT1-MMP reporter = i; Hsc70 ATP site = -7.6%
COc1ccc(-n2c(Cc3cccn3C)nnc2SCC(=O)N2CCCc3ccccc32)cc1 is listed as WNV protease inh = -1.5; MT1-MMP reporter = i; Hsc70 ATP site = -7.1%
O=C(c1cccnc1)N1CCN(C(=O)c2ccccc2F)CC1 is listed as WNV protease inh = 1.2; MT1-MMP reporter = i; Hsc70 ATP site = -0.7%
